NS1 function inh – qHTS Assay for Inhibitors of Influenza NS1 Protein Function; AID 2326, 2010; actives 0.4% (n = 270,000); S. cerevisiae slowed by influenza A NS1, growth recovery by OD600; Potency, µM (titrated, usually from 46.1 µM), without a hit: at the highest dose activity, positive = more growth; note: actives are rising curves; nearly all actives have a fitted effect of over 50% in size
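OD600 was taken as the measure of yeast growth restored by compound in an NS1-expressing S. cerevisiae strain. Cells had been washed out of glucose medium and diluted 1:100 into galactose -URA medium, pH 6.0.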
RE007 growth inh – qHTS Assay for Inhibitors of the HIV-1 protein Vpr | S. pombe RE007 Vpr strain, BacTiter-Glo ATP luminescence, 24 h; control for the full effect not named in the record | Potency, µM (highest dose often 92.2 µM), without a hit: top-dose activity change, negative = less growth | actives 0.21% (n = 360,000) | AID 651644, 2012; active = well fitted falling curve with a large enough effect; inconclusive = small, poorly fitted or top-dose-only effect; inactive = no such curve, though single readings can be large or run the other way;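 note: % is set by controls: 0 for no effect and ±100 for the full control effect; nearly all actives have a fitted effect of over 50% in size; the assay follows cell death caused by Vpr and the record does not say whether a fall means rescue or toxicity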
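Fission yeast strain RE007, carrying one chromosomally integrated HIV-1 vpr copy, was seeded at OD 0.01 in PMG+AL medium with 23 nL pinned compound. After 24 h at 30 °C and 99% humidity, viability was read by BacTiter-Glo luminescence.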
LASV entry inh – qHTS for Inhibitors of binding or entry into cells for Lassa Virus; Lassa virus pseudotype entry inhibition, cell reporter; control for the full effect not named in the record; Potency, µM (titrated, usually from 37.9 µM), without a hit: top-dose activity change, negative = inhibition, usual class: inhibitors; actives 1.2% (n = 300,000); active means well fitted inhibition curve with a large enough effect; inconclusive means small, poorly fitted or top-dose-only effect, or effect the other way; inactive means flat fitted curve, though single readings scatter; tested in HEK293 cells; note: % is set by controls: 0 for no effect and ±100 for the full control effect; nearly all actives have a fitted effect of over 50% in size; luciferase read-out
SARS PLP yeast – qHTS of Yeast-based Assay for SARS-CoV PLP; S. cerevisiae expressing SARS-CoV PLpro, growth rescue; control for the full effect not named in the record; Potency, µM (doses to about 32.9 µM), for the others: at the top dose activity, positive = growth rescue; actives 0.19% (n = 330,000); note: 0% is about no effect; nearly all actives have a fitted effect of over 55% in size; growth read by luminescence after 48 h
Cruzain Triton – qHTS Assay for Promiscuous and Specific Inhibitors of Cruzain (with detergent). actives 0.43% (n = 200,000). purified cruzain, Z-FR-AMC fluorescence, 0.01% Triton. Potency, µM, for the others: max response, negative = inhibition, actives largely listed as inhibitors. Cruzipain (Trypanosoma cruzi), P25779; active = well fitted curve in the direction sought with a large enough effect; inconclusive = small, poorly fitted or top-dose-only effect, or another doubt; inactive = no such curve, though single readings can be large; an effect the other way counts as inactive or inconclusive;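 note: plate controls were neutral wells for no effect and buffer without enzyme for full effect; nearly all actives have a fitted effect of over 40% in size; top concentration of the series not given in the record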
Target sequence (P25779 123-467 limits assumed): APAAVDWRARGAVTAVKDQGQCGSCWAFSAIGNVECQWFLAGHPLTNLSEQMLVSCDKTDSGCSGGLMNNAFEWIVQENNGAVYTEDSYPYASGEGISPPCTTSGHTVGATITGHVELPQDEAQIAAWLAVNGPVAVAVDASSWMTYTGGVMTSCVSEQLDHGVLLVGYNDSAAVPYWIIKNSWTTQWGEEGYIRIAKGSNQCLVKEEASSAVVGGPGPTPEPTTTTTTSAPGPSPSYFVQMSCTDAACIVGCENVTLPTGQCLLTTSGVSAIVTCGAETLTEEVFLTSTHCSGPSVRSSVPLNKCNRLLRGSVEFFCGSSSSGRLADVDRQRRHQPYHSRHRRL
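Compounds were screened in titration against cruzain (1.5 nM) with 0.01% Triton X-100 to counter colloidal aggregation. Activity was the AMC fluorescence increase over 60 s after adding 2 uM Z-FR-AMC at pH 5.5.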
Cruzain inh noDet – qHTS Assay for Promiscuous and Specific Inhibitors of Cruzain (without detergent). actives 2.3% (n = 200,000). purified cruzain, Z-FR-AMC fluorescence, no detergent. AID 1476, 2009. Potency, µM, inactives show max response, negative = inhibition, usual class: inhibitors. Cruzipain (Trypanosoma cruzi), P25779; active = well fitted curve in the direction sought with a large enough effect; inconclusive = small, poorly fitted or top-dose-only effect, or another doubt; inactive = no such curve, though single readings can be large; an effect the other way counts as inactive or inconclusive;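 note: plate controls were enzyme without inhibitor for no effect and buffer without enzyme for full effect; nearly all actives have a fitted effect of over 40% in size; top concentration of the series not given in the record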
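Detergent-free condition (0.00005% Triton X-100) in acetate buffer pH 5.5 with DTT. 1.5 nM enzyme and compound were pre-mixed 15 min, then 2 uM Z-FR-AMC substrate added; reaction progress from fluorescence change between first and third reads (60 s).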
2A StopGo – High Throughput Screening for Foot and Mouth Disease Virus Antivirals; human cells with a luciferase reporter of 2A StopGo recoding; control for the full effect not named in the record; Potency, µM (top dose mostly 57.9 µM), without a hit: at the top dose signal change, negative = less light; actives 1.2% (n = 410,000); active = well fitted falling curve with a large enough effect; inconclusive = small, poorly fitted or top-dose-only effect; inactive = no such curve, though single readings can be large or run the other way; tested in HEK293T cells; note: % is set by controls: 0 for no effect and ±100 for the full control effect; nearly all actives have a fitted effect of over 45% in size; luciferase light after 4 h
MARV entry inh – qHTS for inhibitors of binding or entry into cells for Marburg Virus | Marburg virus pseudotyped entry inhibition, cell reporter; control for the full effect not named in the record; about a third of the inactives were read at about 46 µM | Potency, µM (titrated, usually from 37.8 µM), for inactives: top-dose activity change, negative = inhibition, actives largely listed as inhibitors | actives 1.8% (n = 300,000) | AID 540276, 2011; active = well fitted inhibition curve with a large enough effect; inconclusive = small, poorly fitted or top-dose-only effect, or effect the other way; inactive = flat fitted curve, though single readings scatter; tested in HEK293 cells; about a fifth of its hits are not listed in these tables; note: % is set by controls: 0 for no effect and ±100 for the full control effect; luciferase read-out
An asterisk follows results filed as active; ? = inconclusive; . = not tested or not shown; [ ] = another dose, or the depositor's remark. Unless noted, calls come from the whole dose curve; as a rule, active means well fitted rising curve with a large enough effect; inconclusive means small, poorly fitted or top-dose-only effect; inactive means no such curve, though single readings can be large or run the other way. Potency is the fitted concentration of half-maximal effect. Rows were taken by chance, and some 4.7% of all compounds hit somewhere here.

canonical_smiles	NS1 function inh	RE007 growth inh	LASV entry inh	SARS PLP yeast	Cruzain Triton	Cruzain inh noDet	2A StopGo	MARV entry inh
CCC(C)(C)NC(=O)/C=C/c1cc(OC)c(OC)c(S(=O)(=O)N2CCc3ccccc32)c1	.	-26%	7%[46.1 µM]	0%	.	.	2%	?
CCOc1cc(-c2noc(CCC(=O)Nc3cccnc3)n2)ccc1OC	8%	12%	2%	0%	-5.5%	-1%	?	-24%
CN(C(=O)CSc1nc(-c2ccccc2)no1)c1ccc(F)cc1	.	.	8%[46.1 µM]	.	-3.4%	-10%	-8%	.
COc1ccc(N(CC(=O)NCCc2ccc(Cl)cc2)S(=O)(=O)c2c(C)nn(C)c2C)cc1	.	.	-26%[46.1 µM]	.	-8.0%	29%	-13%	?
COc1ccc(N2C(=O)CC(Sc3n[nH]c(-c4ccc(C)cc4)n3)C2=O)cc1 (stereo not given)	-39%	?	9%	-6%	.	.	-11%	4%[46.1 µM]
Cc1ccc(NC(=O)CN(C)S(=O)(=O)c2ccc3[nH]c(=O)oc3c2)c(C)c1	29%	3%	.	0%	.	.	-11%	.
CCn1c(=O)c([N+](=O)[O-])c(Cl)c2ccccc21	-77%	-12%	?	-6%	.	.	22µM*	?
COC(=O)c1ccccc1NC(=O)CSc1nnnn1C1CCCCC1	-32%	2%	3%	-3%	-1.2%	-4%	-27%	-8%
CNC(=O)C1CCN(c2nc3ccccc3nc2C(F)(F)F)CC1	.	.	2%[46.1 µM]	.	2.3%	-7%	-9%	.
Cc1cc(NC(=O)CSc2nnc(N)s2)c([N+](=O)[O-])cc1C	.	8%	24%	2%	.	.	22%	1%[46.1 µM]
Cc1nn(-c2ccccn2)c2c1C(c1ccccc1Cl)C1=C(N2)c2ccccc2C1=O (stereo not given)	19%	2%	13%	8%	-2.3%	-14%	-17%	-2%
CCn1cc(-c2cc(C(F)(F)F)n3nc(C(=O)O)cc3n2)c(C)n1	0%	-9%	24%	2%	3.3%	-3%	3%	15%
Cc1ccccc1NC(=O)Nc1cnccn1	-12%	-11%	.	?	.	.	8%	.
COc1c(Cl)cc(Cl)cc1/C=N/NC(=O)c1nnn(-c2nonc2N)c1CN1CCC(C)CC1	-5%	6%	1%[46.1 µM]	-3%	.	.	-17%	-29%[46.1 µM]
COc1cc2c(cc1OC)CN(S(=O)(=O)c1ccc3c(c1)OCCO3)CC2	-62%	-8%	-23%	-2%	-1.3%	?	-23%	-24%
COc1cccc(-n2cc(CN(C)Cc3nc(Cc4cccc(F)c4)no3)cn2)c1	-8%	1%	?	-1%	.	.	-4%	6%[46.1 µM]
CCOc1ccc(C(=O)NCCc2csc(-c3cccc(F)c3)n2)cc1OCC	.	.	-4%[46.1 µM]	.	-3.7%	-6%	-10%	.
O=C(Cc1ccsc1)NCC(=O)Nc1ccc(F)c(F)c1	12%	5%	-14%[46.1 µM]	-1%	.	.	2%	3%[46.1 µM]
O=C(C1CC(=O)N(c2ccccc2)C1)N1CCCCCC1 (stereo not given)	3%	6%	.	0%	.	.	-11%	.
COc1cccc(-c2csc(N3CCN(CC(=O)Nc4ccc5c(c4)OCO5)CC3)n2)c1	?	5%	12%	-2%	-1.9%	?	-25%	15%
COc1ccc(NC(=O)Nc2cccc(C)n2)cc1	-17%	-8%	.	-7%	2.1%	2%	50%[activator]	0%
CSc1ccccc1-n1nnnc1SCC(=O)Nc1ccccc1C	-1%	-14%	-12%	-6%	6.1%	-5%	3%	-6%
CCN(CC)c1ccc(/C=C/c2nc3ccccc3s2)cc1	-9%	.	.	-4%	-4.8%	-18%	.	-5%
Cc1ccc(N(CC(O)CN2CCCC2)S(=O)(=O)c2ccc(C)cc2)cc1 (stereo not given)	7%	3%	4%	2%	-1.8%	0%	8%	?
COc1ccc(-n2c(SCC(N)=O)nnc2-c2ccccc2F)cc1	-2%	?	-7%	16%	1.5%	-2%	13%	-1%
CCN(CC)S(=O)(=O)c1ccc(C(O)=C(C#N)c2nc3ccccc3n2C)cc1	.	2%	?	.	.	.	-29%	?
FC(F)(F)c1nnc2ccc(N3CCCCC3)nn12	.	10%	10%	.	.	.	-4%	-3%[46.1 µM]
CCCc1nc(C)cc(N2CCN(c3ccccc3)CC2)n1	-5%	-23%	-26%[46.1 µM]	-3%	.	.	?	?
O=C(Cn1cnc2ccccc2c1=O)NCc1cccs1	.	-9%	2%	1%	.	.	2%	10%[46.1 µM]
Cc1cc(C)c(OC2(c3ccccc3)OC(=O)c3ccccc32)c(C)c1 (stereo not given)	-8%	10%	1%	-31%	-4.5%	-3%	-28%	-23%

The listing continues:
The line under a structure holds: NS1 function inh | RE007 growth inh | LASV entry inh | SARS PLP yeast | Cruzain Triton | Cruzain inh noDet | 2A StopGo | MARV entry inh
- Oc1ccc(Br)cc1/C=N/n1c(-c2ccccc2)n[nH]c1=S
 : 7% | 5% | . | -1% | . | . | -12% | .
- Cc1ccc(C(C(=O)NC2CCCCC2)N(Cc2ccco2)C(=O)Cn2cnc3ccccc32)cc1 (stereo not given)
 : 7% | -15% | ? | -7% | -4.7% | -1% | -12% | ?
- O=[N+]([O-])c1cccc(-c2nnc(-c3ccc4c(c3)OCO4)o2)c1
 : -4% | -9% | ? | -3% | -4.1% | -6% | 43%[activator] | -3%
- CCN(CC(=O)Nc1c(F)cccc1F)C(=O)c1ccc(-c2ccccc2)cc1
 : . | 33% | ? | 0% | . | . | 21% | -14%
- O=C(NC1CCCCCC1)C1Cc2ccccc2CN1C(=O)c1ccco1 (stereo not given)
 : . | -4% | 3% | -1% | . | . | 4% | ?
- CCC(=O)N1N=C2CC(C)(C)OCC2C1c1ccccc1 (stereo not given)
 : -7% | 1% | 2% | 5% | -0.9% | -9% | -10% | ?
- O=C(CSc1nnnn1-c1ccccc1)Nc1ncc(Cc2cc(Cl)ccc2Cl)s1
 : -1% | 11% | 1% | 2% | 7.1% | ? | -4% | 2%
- O=Cc1c(C(=O)O)n(Cc2ccccc2F)c2ccccc12
 : 8% | 8% | -18%[46.1 µM] | 1% | . | . | 8% | 3%[46.1 µM]
- COc1cccc(C(=O)Nc2cccc(OCC(=O)O)c2)c1
 : -2% | -11% | 8% | -5% | -0.5% | 6% | 12% | 12%
- CN1CCN(c2nc(-c3ccccn3)nc3ccccc23)CC1
 : 4% | -6% | -16% | 0% | 4.8% | -5% | -11% | ?
- COC(=O)c1c(NS(=O)(=O)c2ccccc2)csc1C
 : 2% | 15% | 0% | 0% | . | . | -13% | ?
- COc1ccc(C2c3ccc4ccccc4c3Oc3ncn(CCN4CCOCC4)c(=N)c32)cc1OC (stereo not given)
 : 1% | 4% | . | 1% | . | . | -2% | .
- O=C(c1cccc(N2C(=O)C3CC=CCC3C2=O)c1)N1CCCc2ccccc21 (stereo not given)
 : . | 1% | 4% | 1% | . | . | 20% | 8%
- COc1ccc(OC)c(NC(=O)COC(=O)c2ccc(OC)c(S(=O)(=O)N3CCCC3)c2)c1
 : . | -23% | -8% | -3% | . | . | -23% | -15%
- O=[N+]([O-])c1cc(C(F)(F)F)ccc1NCC1CCCO1 (stereo not given)
 : -12% | -10% | 14% | -1% | . | . | 9% | -16%
- Cc1cc(C)nc(N(C#N)CC(=O)Nc2ccccc2)n1
 : 1% | 15% | 8% | 2% | 7.7% | 6% | 4% | -5%
- O=C(CSc1nc(-c2ccc(F)cc2)[nH]c1-c1ccccc1)Nc1ccccc1
 : . | . | 14%[46.1 µM] | . | -8.0% | 10% | -28% | ?
- CC(=O)N1CCN(C(=S)NCc2ccccc2)CC1
 : 16% | -5% | 5% | 4% | -1.7% | -7% | -1% | 27%
- CC(=O)c1ccc(N2CCN(C(=O)C3CCCN(S(=O)(=O)c4ccc(Br)s4)C3)CC2)cc1 (stereo not given)
 : . | . | -27%[46.1 µM] | . | -5.5% | ? | ? | -5%[46.1 µM]
- CC(C)CCC(O)(CCC(C)C)C(=O)NNc1ccccc1
 : -9% | 58% | ? | -12% | -3.2% | ? | 3% | -11%
- O=C(Nc1ccc(S(=O)(=O)Nc2ncccn2)cc1)c1cccc(Br)c1
 : 8% | -1% | -2% | 12% | . | . | 0% | ?
- Cc1cnnc2c1-c1nonc1CC2
 : ? | -25% | 16% | -4% | 1.0% | -5% | -22% | 13%

As entered above.
O=C(CSc1nc(-c2ccc(F)cc2)[nH]c1-c1ccccc1)Nc1ccccc1 | LASV entry inh: 14%[46.1 µM]
Cc1cnnc2c1-c1nonc1CC2 | Cruzain inh noDet: -5%
O=C(NC1CCCCCC1)C1Cc2ccccc2CN1C(=O)c1ccco1 (stereo not given) | 2A StopGo: 4%
O=Cc1c(C(=O)O)n(Cc2ccccc2F)c2ccccc12 | RE007 growth inh: 8%

Compound profiles, as listed above. Order of values: NS1 function inh | RE007 growth inh | LASV entry inh | SARS PLP yeast | Cruzain Triton | Cruzain inh noDet | 2A StopGo | MARV entry inh
COC(=O)c1c(NS(=O)(=O)c2ccccc2)csc1C is listed as 2% | 15% | 0% | 0% | . | . | -13% | ?
COc1ccc(OC)c(NC(=O)COC(=O)c2ccc(OC)c(S(=O)(=O)N3CCCC3)c2)c1 is listed as . | -23% | -8% | -3% | . | . | -23% | -15%

High-throughput results: PubChem, National Center for Advancing Translational Sciences (NCATS)
